VDR inh: vitamin D3 receptor (human) inhibition. P11473. VDR-SRC2-3 peptide fluorescence polarization, 2 h. Potency, µM, without a hit: max response, negative = inhibition, hits mostly inhibitors. actives 0.93% (n = 400,000); active = well fitted inhibition curve with a large enough effect; inconclusive = small, poorly fitted or top-dose-only effect, or another doubt; inactive = no such curve, though single readings can be large or run the other way; also: series mostly up to about 120 µM
Target sequence (P11473 whole entry, looked up): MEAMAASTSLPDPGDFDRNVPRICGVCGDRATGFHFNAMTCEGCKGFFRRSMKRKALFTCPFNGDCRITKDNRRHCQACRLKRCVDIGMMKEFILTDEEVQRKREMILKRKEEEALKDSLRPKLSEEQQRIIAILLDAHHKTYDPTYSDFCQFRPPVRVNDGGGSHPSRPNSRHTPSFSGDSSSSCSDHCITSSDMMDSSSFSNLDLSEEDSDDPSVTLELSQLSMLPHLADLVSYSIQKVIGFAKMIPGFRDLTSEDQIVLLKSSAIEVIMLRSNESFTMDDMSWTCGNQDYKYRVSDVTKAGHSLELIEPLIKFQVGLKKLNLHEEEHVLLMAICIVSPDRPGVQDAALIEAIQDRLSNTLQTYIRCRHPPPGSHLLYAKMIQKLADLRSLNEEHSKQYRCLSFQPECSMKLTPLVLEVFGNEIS
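Inhibition of the VDR/SRC2-3 peptide interaction is quantified by fluorescence polarization. Compounds (23 nl, pintool) incubate with the reagents for 2 hours at ambient room temperature.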
Active calls of the source: *; ? = inconclusive; & = joins results of further samples. % is scaled to controls: 0 for no effect and ±100 for the full control effect; potency is read from the fitted curve at half-maximal effect. A portion of the library, so the mix of outcomes need not match the whole.

SMILES | VDR inh
CC(CNC(=O)CCn1c(=O)c2cccn2c2ccc(F)cc21)c1ccccc1 (centres undefined) | -10%&0%
COc1ccc(S(=O)(=O)NC(C)(C)CO)cc1-c1nnc2c3ccccc3c(C)nn12 | -5%
COc1ccc(CC(=O)N[C@@H]2c3ccccc3CC[C@@H]2OCc2ccccc2)cc1 | -2%
COC(=O)c1cc2oc3ccccc3c2n1Cc1nc(-c2cccc(Cl)c2)oc1C | 4%
O=C1N(Cc2ccc3c(c2)OCO3)c2ccccc2C1(O)c1c[nH]c2ccccc12 (centres undefined) | 0%
COc1ccc(NC(=O)c2c(C)oc3ccc(O)c(CN4CCN(C)CC4)c23)cc1Cl | 17%
O=C(CN(C(=O)c1csnn1)c1ccc(F)c(Cl)c1)NCc1ccc(F)cc1 | -13%
Cc1cccc(C(=O)NNC(=O)c2ccc(NC(=O)C(C)(C)C)cc2)c1 | ?
Cc1ccc(Nc2c3c(nc4nc(-c5cccs5)nn24)CCCC3)cc1F | -3%
Cc1sc2ncnc(OCC(=O)NC(C)C(C)C)c2c1C (centres undefined) | 12%
O=C(NCc1ccc2c(c1)OCO2)c1ccc(CS(=O)(=O)c2ccc(Br)cc2)o1 | -7%
O=C(N/N=C/c1ccccc1O)C1(O)c2ccccc2-c2ccccc21 | ?

Entries from the list above that have a furan ring, fused or not:
SMILES | VDR inh
COC(=O)c1cc2oc3ccccc3c2n1Cc1nc(-c2cccc(Cl)c2)oc1C | 4%
COc1ccc(NC(=O)c2c(C)oc3ccc(O)c(CN4CCN(C)CC4)c23)cc1Cl | 17%
O=C(NCc1ccc2c(c1)OCO2)c1ccc(CS(=O)(=O)c2ccc(Br)cc2)o1 | -7%

Remaining list, next part:
SMILES | VDR inh
CN(c1ccccc1)S(=O)(=O)c1ccc(C(=O)OCC(=O)N2CCOCC2)cc1 | 6%
COc1ccc(NC(=O)CSc2nnc(C3CCCCC3)n2N)c(OC)c1 | 17%
CCOc1ccc(C(C)NC(=O)Nc2ccc(F)cc2F)cc1 (centres undefined) | -1%
Clc1ccccc1OCCCn1ccnc1 | 0%
Cc1ccc(N2CCN(/N=C/c3cccs3)CC2)cc1 | -7%
Cc1ccc(N2C(=O)c3n[nH]c(C)c3C2c2ccccc2Cl)cc1 (centres undefined) | -4%
O=C(Nc1nnc(-c2ccccc2SCc2ccccc2F)s1)Nc1ccccc1F | -9%
CCOC(=O)C1(O)CSc2nc3sc(C(=O)O)c(C)c3c(=O)n21 (centres undefined) | 16%
CCc1cnc2c(c1SCC(=O)NCc1ccccc1)c(=O)n(C)c(=O)n2C | 20%
O=C(Nc1cccc(O)c1)c1ccc([N+](=O)[O-])cc1Cl | -2%
CCc1cc(C(=O)OC)c(NC(=O)c2cc(Br)cs2)s1 | -7%
Cc1cc2c(C)cc(=O)[nH]c2cc1NC(=O)CCl | 3%
CN(Cc1cccc(Cl)c1Cl)C(=O)c1cc(S(=O)(=O)N2CCOCC2)ccc1F | 10%
CC(C)[C@H](NC(=O)c1ccccc1)C(=O)N1CCc2ccccc21 | 4%
Cc1nc(-c2cccs2)ccc1C(=O)O | 10%
Cc1cc(C)c2ccc(NN)nc2c1O | -9%
O=C1c2cccc3cccc(c23)C(=O)N1CC1CCN(CC(O)COCc2ccc3c(c2)OCO3)CC1 (centres undefined) | 5%
O=C(COC(=O)c1ccc(Cl)nc1)NNC(=O)c1ccc(Cl)cc1 | 10%
Cc1c(Cl)cccc1NC(=O)CSc1ncc(S(=O)(=O)c2ccc(C(C)C)cc2)c(=O)[nH]1 | -18%
CCc1nc(SCC(=O)Nc2cccc3ccccc23)[nH]c(=O)c1C | 10%
CC[C@H](C)[C@H](NC(=O)[C@H](Cc1ccc(O)cc1)NC(=O)[C@@H](NC(=O)[C@H](CCCN=C(N)N)NC(=O)[C@@H](N)CC(=O)O)C(C)C)C(=O)N[C@@H](Cc1cnc[nH]1)C(=O)N1CCC[C@H]1C(=O)N[C@@H](Cc1ccccc1)C(=O)O | 7%
CSc1ccc(C=O)cc1 | 8%
Cn1c(N)c(C(=O)COC(=O)CSc2ccc3ccccc3c2)c(=O)n(C)c1=O | 9%
COc1ccc(NC(=O)c2nnn(CC(=O)Nc3cc(C)cc(C)c3)c2N)c(OC)c1 | -23%
CCOC(=O)C1(NC(=O)C2(NC(=O)CN3C(=O)c4ccccc4C3=O)CCCC2)CCCC1 | -8%
O=C(O)c1ccccc1Nc1ccnc(C(F)(F)F)c1 | 8%
c1ccc(C(c2ccccc2)N2CC[C@@]3(CCCNC3)C2)cc1 | ?
COCc1cc(C)nc(Nc2ccccc2C)c1C#N | -9%
CC(O)C(NC=C1C(=O)OC(C)(C)OC1=O)C(=O)O (centres undefined) | -1%
CCCCCCCCCCOC(=O)Cn1c(COc2ccc(Cl)cc2)[n+](C)c2ccccc21 | -1%
CC(C)(Oc1ccc(Cl)cc1)C(=O)NCC(c1cccs1)N1CCOCC1 (centres undefined) | 2%
COc1ccc(CCNC(=O)COC(=O)/C=C/c2ccc3c(c2)OCO3)cc1OC | 3%
Cc1ccccc1-c1nc(CSc2nc3c(c(=O)[nH]2)CCC3)c(C)o1 | 5%
Nc1nc2n(n1)C(=O)CC(c1ccccc1)N2 (centres undefined) | 5%
COc1ccc(S(=O)(=O)N2CCCCC2)cc1NC(=O)CCCOc1ccccc1 | -1%
O=c1oc2ccccc2c(NCCO)c1[N+](=O)[O-] | 0%

A few values from above.
COc1ccc(NC(=O)CSc2nnc(C3CCCCC3)n2N)c(OC)c1 | VDR inh = 17%
Cc1nc(-c2cccs2)ccc1C(=O)O | VDR inh = 10%
CSc1ccc(C=O)cc1 | VDR inh = 8%
CCCCCCCCCCOC(=O)Cn1c(COc2ccc(Cl)cc2)[n+](C)c2ccccc21 | VDR inh = -1%
O=C(COC(=O)c1ccc(Cl)nc1)NNC(=O)c1ccc(Cl)cc1 | VDR inh = 10%

New compounds follow:
SMILES | VDR inh
O=C(CCCNS(=O)(=O)c1cccc2nsnc12)NC1CCCCC1 | -1%
Cc1cccc(C(=O)NNC(=O)c2ccc(NS(=O)(=O)c3cccs3)cc2)c1C | 2%
COc1ccc(-n2c(SCC3OCCO3)nc3c(sc(=S)n3-c3ccccc3)c2=O)cc1OC | 8%
CSc1cccc(NC(=O)c2cnccn2)c1 | -2%
CCCC(=O)N(c1ccc2oc(=O)sc2c1)S(=O)(=O)c1ccccc1 | ?
Cc1ccc(N2CCN(C(=O)c3cn(C)c4ccc(S(=O)(=O)N5CCC(C)CC5)cc4c3=O)CC2C)cc1 (centres undefined) | 4%
CCOC(=O)c1cnc2c(ccc3ccccc32)c1NCCCN(C)C | 6%
CCSCc1nnc(SCC(=O)Nc2cccc(C(C)=O)c2)n1C | -1%
CCOc1ccc(NC(=O)CN(C)C(=O)c2ccc3nc(CC)c(CC)nc3c2)cc1OCC | -2%
O=C(CN1CCN(S(=O)(=O)c2ccc(Br)cc2)CC1)N/N=C/c1ccc(Br)s1 | -1%
CCn1c(=N)n(CCO)c2ccccc21 | 7%
COc1ccccc1NC(=O)c1ccc(NC(=O)c2nc3nccc(C)n3n2)cc1 | -2%
CC(OC(=O)CCc1c[nH]c2ccccc12)C(=O)c1ccccc1 (centres undefined) | -19%
Cc1c(C(=O)OCC(=O)NCc2ccc3c(c2)OCO3)cccc1[N+](=O)[O-] | 12%
CC(=O)N1c2nc(C(C)C)nn2C2(CCCCC2)[C@@H]2CCCC[C@@H]21 | 2%
CCCC(CC)Sc1nc2c([nH]1)c(=S)n(C)c(=O)n2C (centres undefined) | -1%
CC(C)CCNC(=O)CC1Nc2c3ccccc3nc(=S)n2C1=O (centres undefined) | -11%
COc1ccc(C2C(Oc3ccccc3C)C(=O)N2Cc2ccc(F)cc2)cc1OC (centres undefined) | 9%
Cc1cc(C)n(S(=O)(=O)c2ccccc2)n1 | 5%
NC(=O)c1ccc(=O)n(C2OC(CO)C(O)C2O)c1 (centres undefined) | -16%
Cc1cccc(C)c1OCCCCCNCCO | 6%
COc1ccc(NC(=O)CSc2ncc3c(n2)-c2ccccc2N(Cc2ccc(C)cc2)S3(=O)=O)cc1Cl | -2%
O=C(NC(=S)Nc1ccccc1F)c1ccc(Br)o1 | -15%
COc1ccccc1C(CNC(=O)c1ccc(-c2ccccc2Cl)o1)N1CCCC1 (centres undefined) | -6%
O=C(CSc1ccc(Br)cc1)N1CCN(C(=O)c2ccco2)CC1 | -14%
Cc1ccc(C(=O)N/C(=C\c2cccs2)C(=O)N2CCCCCC2)cc1 | -8%
CCN1C[C@@H]2[C@@H]3C(=O)N(C)C(=O)[C@@H]3[C@](C)(C1=O)N2C(=O)c1ccc(F)cc1 | -11%
O=S1(=O)[C@H]2C[C@@H]3C=C[C@@]2(CN1Cc1ccc(Cl)cc1)O3 | -3%
C/C(N)=C(/C#N)C(=O)CSc1ccc2c(c1)OCCO2 | -19%
O=C(NCc1ccc2c(c1)OCO2)C1CCCN(S(=O)(=O)c2cccnc2)C1 (centres undefined) | -5%
CC(=O)c1ccc(-n2nncc2-c2ccc([N+](=O)[O-])cc2)cc1 | -4%
CCOc1cc(C=NN=C2c3ccccc3-c3ccccc32)ccc1O | -15%
Cc1ccccc1-n1nnnc1SCC(=O)NCC1CCCO1 (centres undefined) | -2%
C=CCC[C@H](Cc1ccc(F)cc1)C(=O)OC[C@@H](C)NC(=O)[C@H](CC=C)CC(=O)NCCO | -7%
O=C(NC(=O)N1CCN(c2ccc(F)cc2)CC1)c1ccccc1 | 3%
COc1cc(S(=O)(=O)N(C)C)ccc1Br | -10%
CC1CN(C(=S)SCC(=O)c2ccc(Cl)cc2)CC(C)O1 (centres undefined) | -9%
CC(=O)OCC1OC(n2c3c(cc(C#N)c2=S)CCCC3)C(OC(C)=O)C(OC(C)=O)C1OC(C)=O (centres undefined) | -3%
CN1C(=O)C2(c3ccccc31)N(c1ccccc1)C(=O)CS2(=O)=O (centres undefined) | -2%
COC(=O)C1C(=O)NCC1c1ccccc1 (centres undefined) | -17%
O=S(=O)(c1ccc(F)cc1)N1CCN=C1SCc1cccnc1 | 5%
O=c1cc(-c2ccccc2)n2c(SCc3ccc(Cl)cc3)nnc2[nH]1 | 4%
CCOC(=O)Nc1ccc(S(=O)(=O)Nn2cnnc2)cc1 | -8%
Cc1ccc2nc(Cl)c(C3CC(c4cccs4)=NN3S(C)(=O)=O)cc2c1 (centres undefined) | 8%
CC(=O)Nc1ccc(NC(=O)C(C)Sc2nnc(-c3cccs3)o2)cc1 (centres undefined) | -5%
CCc1ccc(CNC(=O)C2CC(=O)N(CCc3ccc(C)cc3)C2)cc1 (centres undefined) | 3%
CCOc1cc(C(=S)N2CCCCC2)ccc1OCC(=O)NCc1ccccc1 | 6%
COc1ccc(C)cc1N(C(=O)c1ccc(F)cc1)c1nc2ccccc2s1 | -5%

A different layout for 6 compounds above:
VDR inh | Structure
-17% | COC(=O)C1C(=O)NCC1c1ccccc1 (centres undefined)
-5% | CC(=O)Nc1ccc(NC(=O)C(C)Sc2nnc(-c3cccs3)o2)cc1 (centres undefined)
-5% | COc1ccc(C)cc1N(C(=O)c1ccc(F)cc1)c1nc2ccccc2s1
-9% | CC1CN(C(=S)SCC(=O)c2ccc(Cl)cc2)CC(C)O1 (centres undefined)
4% | O=c1cc(-c2ccccc2)n2c(SCc3ccc(Cl)cc3)nnc2[nH]1
-8% | CCOC(=O)Nc1ccc(S(=O)(=O)Nn2cnnc2)cc1

(list continues)
SMILES | VDR inh
CCN(CC)C(=O)CSc1nnc(-c2ccccc2)n1N | 1%
CC1CC(C)CN(C(=O)Cn2cc(C=O)c3ccccc32)C1 (centres undefined) | -13%
CN(CCCC(=O)NCc1ccco1)S(=O)(=O)c1ccccc1 | -6%
COC1C(O)C(CO)OC1n1cnc2c(=O)[nH]c(N)nc21 (centres undefined) | 14%
C=CCc1cc(Cl)ccc1OCCN1CC(C)OC(C)C1 (centres undefined) | -6%
CC(=O)Nc1ccc(NS(=O)(=O)c2ccc(C)cc2)c([N+](=O)[O-])c1 | 2%
CN1CCN(c2ccc(NC(=O)c3ccc4c(c3)OCCO4)cc2)CC1 | 1%
COc1c(Cl)cc(Cl)cc1/C=C/C(=O)c1ccc(NC(=O)c2cccs2)cc1 | -24%
O=C(Nc1ccccc1Br)C(Cc1ccccc1)NS(=O)(=O)c1cccc2nsnc12 (centres undefined) | ?
CC(C)c1c(C(=O)N/N=C/c2ccc(OCc3ccc(F)cc3)cc2)nnn1-c1nonc1N | -6%
O=C(Nc1ccc(Cl)c([N+](=O)[O-])c1)ONC1=NCCCCC1 | -8%
COC(=O)c1ccccc1NC(=O)N(Cc1ccc(C)cc1)Cc1cccn1-c1nnc(N2CCCC2=O)s1 | 0%

Fetched one by one from the list above (4):
SMILES | VDR inh
Cc1cccc(C(=O)NNC(=O)c2ccc(NS(=O)(=O)c3cccs3)cc2)c1C | 2%
CC(O)C(NC=C1C(=O)OC(C)(C)OC1=O)C(=O)O (centres undefined) | -1%
COC1C(O)C(CO)OC1n1cnc2c(=O)[nH]c(N)nc21 (centres undefined) | 14%
CN1CCN(c2ccc(NC(=O)c3ccc4c(c3)OCCO4)cc2)CC1 | 1%

(continued)
SMILES | VDR inh
O=C1CSC(c2nn(-c3ccccc3)cc2-c2cc3ccccc3oc2=O)N1Cc1ccco1 (centres undefined) | 4%
O=C(NNC(=S)NC(=O)c1cccs1)c1ccc(O)cc1 | 4%
CCOC(=O)c1sc2nc(CC(C)C)c3c(c2c1N)CCC3 | 0%
Cn1nnc2c[n+](CC(=O)c3ccc(Cl)cc3)cc(Br)c21 | -5%
COc1ccccc1NC(=O)C1=C(C)Nc2nc(SCc3ccccc3Cl)nn2C1c1ccccn1 (centres undefined) | -16%
CC1CCN(CCCNC(=O)C2CC(=O)N(CCc3ccccc3)C2)CC1 (centres undefined) | 7%
O=C(/C=C/N1CCN(Cc2ccccc2)CC1)C(F)(F)F | -17%
COC(=O)C(CN)c1c[nH]c2ccc(OC)cc12 (centres undefined) | 3%
Cc1cc(=O)n2ccsc2n1 | -11%
O=C(O)CN1CCCCC1 | -8%
N#CCc1ccc(Oc2ccc([N+](=O)[O-])cn2)cc1 | -10%
Cc1ccc(S(=O)(=O)N2CCCCC2)cc1C(=O)NCCC1=CCCCC1 | -23%

Screening results deposited in PubChem by National Center for Advancing Translational Sciences (NCATS).
